# LANA-H2A inh = blockers of LANA interaction with H2A/H2B – biochemical, FP readout, HTS, primary screen | Protein LANA1 (Human herpesvirus 8 type P (isolate GK18)), Q9QR71 | cell-free LANA-H2A/H2B peptide, fluorescence polarization | inhibition, % (test concentration not listed) | 320,000 tested, 0.6% active | AID 2629, 2010; in the data active means inhibition mostly above about 10%, no sharp cut-off; inactive means mostly below about 6.7%;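 further: stock transfer was 7.5 nL into about 10 µL; 0% = median of vehicle wells and 100% = median of positive control wells; one replicate is shown; the record names a cut of 25% in any replicate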
# Beta cell apopt = inhibitors of cytokine-induced beta cell apoptosis, primary screen, luminescence | AID 435005, 2010 | 300,000 tested, 0.8% active | protection from apoptosis, % (test concentration not listed) | INS-1E cytokine-induced death, ATP luminescence, 48 h; percent of positive-control rescue, neutral wells zero;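 active means all replicates at 75% or more, or half of them and the mean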;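 further: 0% = cytokine-treated negative control wells and 100% = positive control rescue; higher means more ATP so stronger rescue from cytokine killing; wells of about 40 µL received 100 nL stock; the first replicate is given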
# Bfl-1 A1 inh = caspase 3/7 activation in MEF A1-2A-BIM cells, primary screen, A1 inhibitor project, cell-based, luminescence, HTS; Caspase-Glo 3/7 luminescence, 3 h; percent of clofoctol response, vehicle zero; caspase activation, % (concentration not given with the values); 330,000 tested, 0.066% active;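 active means over half of replicate activation scores above 10%, or exactly half above 10 with the replicate mean above 10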;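 further: wells of about 30 µL received 50 nL stock; many hits fall short of the cut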
# ALR inh = inhibitors of human ALR sulfhydryl oxidase, primary screen, biochemical, H2O2 detection, HRP-luminol luminescence, single point | AID 485317, 2010 | purified ALR, DTT oxidation | 290,000 tested, 3.8% active | inhibition, % (concentration not given with the values);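 active means mean and each replicate at 75% or more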;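 further: stock transfer was 7.5 nL into about 7.5 µL; 0% = neutral wells and 100% = wells with inactivated enzyme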
# Target sequence (P55789 whole entry, looked up): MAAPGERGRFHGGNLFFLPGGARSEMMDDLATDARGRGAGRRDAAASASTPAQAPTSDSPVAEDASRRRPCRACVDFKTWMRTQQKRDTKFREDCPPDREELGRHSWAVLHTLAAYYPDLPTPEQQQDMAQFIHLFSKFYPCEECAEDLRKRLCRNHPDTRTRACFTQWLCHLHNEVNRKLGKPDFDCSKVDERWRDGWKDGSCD
# T cruzi inh = inhibitors of intracellular T. cruzi growth, primary screen, luminescence, NIH3T3 host cells. T. cruzi beta-gal in NIH3T3, 90 h. inhibition, % (test concentration not listed). 300,000 tested, 1.4% active;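 active means mean inhibition across valid replicates above about 55%, limit read from the data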;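 further: signal also drops with host cell toxicity which is not excluded here; 0% = plate median of DMSO wells and 100% = zero luminescence signal; higher percent means less beta-gal luminescence so fewer parasites; stock transfer was 50 nL into about 50 µL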
# B2AR ag = beta2AR agonists driving receptor internalization, primary screen, cell-based, FAP fluorogen, flow cytometry; AID 504454, 2011; response, % (concentration not given with the values); 340,000 tested, 0.43% active; Am2.2-beta2AR cells; reference of the scale not given here;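 active means response above a set limit, near 3 SD of response in nonfluorescent compounds, cut at about 42% in these data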;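 further: stock transfer was 100 nL into about 11 µL; a reference agonist was the positive control; negative values mostly stem from fluorescent compounds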
# Target sequence (P07550 whole entry, looked up): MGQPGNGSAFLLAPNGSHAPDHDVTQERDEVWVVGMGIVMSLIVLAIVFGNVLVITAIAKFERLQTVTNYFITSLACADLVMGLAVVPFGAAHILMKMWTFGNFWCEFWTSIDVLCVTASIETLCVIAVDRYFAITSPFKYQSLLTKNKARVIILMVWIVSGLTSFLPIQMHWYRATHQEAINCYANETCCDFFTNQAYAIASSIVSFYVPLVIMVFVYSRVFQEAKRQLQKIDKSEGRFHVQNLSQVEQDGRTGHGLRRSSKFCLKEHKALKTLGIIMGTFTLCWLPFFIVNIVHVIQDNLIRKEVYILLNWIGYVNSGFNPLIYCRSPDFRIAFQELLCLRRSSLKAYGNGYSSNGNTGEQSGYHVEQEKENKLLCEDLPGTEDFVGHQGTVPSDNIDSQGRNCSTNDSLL
# rRNA inh HTS = reduced GFP signal of wild-type E. coli, primary screen, bacterial rRNA inhibitor project, GFP/RFP fluorescence, OD600, single point; E. coli WT GFP vs humanized-ribosome RFP mutants, 24 h; active compounds read low; DMSO median 0, no signal -100; GFP signal change (wild-type ribosome), % (test concentration not listed); 350,000 tested, 1.6% active; AID 720706, 2013;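 active means significant combined selectivity score with lowered wild-type GFP, culture density cut under 30%, mutant RFP and density less affected; inactive means any of these conditions unmet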; further: one replicate is shown; some compounds called inactive have numbers as strong as hits
# Calb FLC = C. albicans growth inhibition with fluconazole, primary screen, CaCi-2 strain, Alamar Blue fluorescence | C. albicans CaCi-2 (fluconazole-resistant clinical isolate) + fluconazole, 48 h | growth inhibition, % (test concentration not listed) | 300,000 tested, 0.57% active | AID 1979, 2009;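 active means most replicates above 75%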;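 further: all wells also contain fluconazole at 8 µg/ml as a sub-toxic cotreatment; 0% = median of DMSO wells and 100% = median of geldanamycin control wells; wells of about 8 µL received 7.5 nL stock; the first replicate is given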
# rRNA inh HTS OD600 = further read-out of rRNA inh HTS, marked with its call; OD600 change, %; measured here: OD600 growth;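 optical density of the mix in the first replicate; 0 = DMSO median and -100 = no signal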
# rRNA inh HTS RFP = further read-out of rRNA inh HTS, marked with its call; RFP signal change, %; measured here: RFP humanized mutant strains;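 first replicate; 0 = DMSO median and -100 = no signal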
# The depositor's hits bear a star; / = no result given; & = joins results of further samples.
SMILES,LANA-H2A inh,Beta cell apopt,Bfl-1 A1 inh,ALR inh,T cruzi inh,B2AR ag,rRNA inh HTS,rRNA inh HTS OD600,rRNA inh HTS RFP,Calb FLC
CN1CCN(CCc2nc3cc(NC(=O)COc4ccccc4)ccc3n2C)CC1,-0.1,2,0.5,/,20,-17,/,/,/,-5
COc1ccc(C)cc1NC(=O)CNC(c1ccccc1)c1ccc(C)cc1 (centres undefined),5.2,15,1.7,-14,-10,1,-2,0,-0.7,-4
OCC1CCCCN1C(=S)Nc1ccc(Cl)cc1Cl (centres undefined),5.1,-4,-0.1,2,-7,1,-26,-23,-5.8,-4
COc1ccc(-c2cc(C(=O)N3CCN(c4ncccn4)CC3)c3ccccc3n2)cc1OC,/,2,-0.1,-9,/,15,-14,-13,2.5,/
Cc1ccc(OCc2ccc(C(=O)NN)o2)cc1C,-2.1,5,0.2,3,-8,8,-32*,-4.8*,2.0*,-16
COc1cccc(C(=O)Nc2ccc(C(=O)c3ccccc3)cc2)c1,-21,3,-2.8,-4,-3,4,-31,-32,0.4,0
COc1ccc(C)cc1S(=O)(=O)N(CC(=O)N1CCOCC1)c1cc(C)cc(C)c1,-0.3,-6,0.7,0,-6,-4,3,-1,-3.3,3
Cc1ccc(CNC(=O)c2csc3c2CCCCC3)cc1,1.7,/,0.4,-20,12,4,/,/,/,-2
Cc1nonc1NC(=O)CSc1nc(C2CCCCC2)nc2ccccc12,-0.8,-4,-0.2,2,12,-13,/,/,/,-17
COc1cc(Cl)ccc1OCc1cc(C(=O)N(C)Cc2nnc(C)o2)no1,-4.7,/,0.3,-15,-5,-1,4,4,-0.7,-13
Cc1ccc(NS(=O)(=O)c2ccc(-c3ccc(=O)[nH]n3)o2)cc1Cl,-4.6,-7,0.1,-6,-11,-1,0,-13,-1.4,14
CC(=O)N1CCN2C(=O)C1CCCC(=O)c1cc(C3CCCCC3)ccc12 (centres undefined),-3.3,5,1.6,/,-13,-4,/,/,/,11
COCCNc1c(-c2ccc(OC)c(OC)c2)nc2ccc(Cl)cn12,-3.9,7,-0.1,62,3,-10,-9,-3,-0.7,24
COc1ccc(C(=O)C2CCCN(Cc3cc(Cl)ccc3O)C2)c(OC)c1 (centres undefined),-2.1,/,0.2,/,31,9,-40,-66,-5.5,34
CCCn1c(=O)c2c(nc3n2CCCN3Cc2ccccc2)n(C)c1=O,-0.6,4,-3.5,16,9,-1,0,1,-0.3,8
O=C(NCc1ccccc1)C(Cc1ccccc1)N1C(=O)C2C3CCC(C3)C2C1=O (centres undefined),1.1,11,0.8,-10,-18,2,/,/,/,-11
O=C(C1CCC(=O)N(C2CC2)C1)N1CCC(Oc2cccc(F)c2)CC1 (centres undefined),1.2,2,-1.5,-3,-6,2,6,20,3.2,1
COc1ccc(-c2nnc(SCC(=O)Nc3ccc(C)cc3)n2C)cc1,-2.8,-4,-0.3,-3,-13,-6,/,/,/,-1
COC(=O)CCCNC(=O)c1ccc(OS(=O)(=O)c2cc([N+](=O)[O-])ccc2C)cc1,0.1,1,-0.6,-14,-4,2,-12,-5,-4.9,-1
COc1cc(C(=O)NCCC2=CCCCC2)ccc1OCc1c(C)noc1C,/,5,-0.3,2,/,-3,13,9,1.9,/
CCc1nnc(NC(=O)C2CCCN2C(=O)Nc2ccc(Cl)cc2)s1 (centres undefined),6.3,-2,0.1,0,3,-9,-2,4,-0.6,-3
COCCNC(=S)N1CCC(NC(=O)Nc2ccc(C)cc2)CC1,-0.6,2,0.0,3,-11,0,11,4,2.4,-5
O=C(c1cccc([N+](=O)[O-])c1)N1CCCC(C(=O)N2CCN(c3ccccc3)CC2)C1 (centres undefined),-1.3,-2,-0.3,17,4,0,-4,12,-0.4,/
CC1(C)CC(=O)C=C(Nc2ccc(C(=O)O)cc2)C1,0.3,-3,0.1,-18,-6,3,/,/,/,14
Cc1ccc(-c2ccc(C(=O)NCc3ccc(Cl)cc3)o2)c2ccccc12,-2.3,-11,-0.7,-31,9,12,-3,2,-1.9,23
Cc1ccc(S(=O)(=O)C2C(=O)N(C)C3(C)CC2c2ccccc2O3)cc1C (centres undefined),4.6,-9,0.6,/,4,-13,/,/,/,-12
CSc1nnc2c(n1)OC(C)N(C(=O)c1ccccc1)c1ccccc1-2 (centres undefined),0.7,3,0.3,-2,-10,2,/,/,/,-3
O=C(OCC(=O)N1CCCc2ccccc21)c1ccc(F)c(S(=O)(=O)N2CCOCC2)c1,-2.2,1,1.6,-14,-11,0,-1,-7,1.7,-3
O=C(NCCCCNC(=O)c1ccc(Cl)s1)c1ccc(Cl)s1,-3.6,5,0.5,7,-4,-8,/,/,/,-8
COc1ccccc1NS(=O)(=O)c1cc(NC(=O)c2ccc3c(c2)OCCO3)ccc1C,-1.2,4,-0.1,-3,7,29,/,/,/,-1

# Ordered by length of the SMILES (rising): part of the list above.
SMILES,LANA-H2A inh,Beta cell apopt,Bfl-1 A1 inh,ALR inh,T cruzi inh,B2AR ag,rRNA inh HTS,rRNA inh HTS OD600,rRNA inh HTS RFP,Calb FLC
CC1(C)CC(=O)C=C(Nc2ccc(C(=O)O)cc2)C1,0.3,-3,0.1,-18,-6,3,/,/,/,14
COCCNC(=S)N1CCC(NC(=O)Nc2ccc(C)cc2)CC1,-0.6,2,0.0,3,-11,0,11,4,2.4,-5
COc1cc(C(=O)NCCC2=CCCCC2)ccc1OCc1c(C)noc1C,/,5,-0.3,2,/,-3,13,9,1.9,/
CSc1nnc2c(n1)OC(C)N(C(=O)c1ccccc1)c1ccccc1-2 (centres undefined),0.7,3,0.3,-2,-10,2,/,/,/,-3
Cc1ccc(-c2ccc(C(=O)NCc3ccc(Cl)cc3)o2)c2ccccc12,-2.3,-11,-0.7,-31,9,12,-3,2,-1.9,23
Cc1ccc(S(=O)(=O)C2C(=O)N(C)C3(C)CC2c2ccccc2O3)cc1C (centres undefined),4.6,-9,0.6,/,4,-13,/,/,/,-12
O=C(NCc1ccccc1)C(Cc1ccccc1)N1C(=O)C2C3CCC(C3)C2C1=O (centres undefined),1.1,11,0.8,-10,-18,2,/,/,/,-11
COc1ccccc1NS(=O)(=O)c1cc(NC(=O)c2ccc3c(c2)OCCO3)ccc1C,-1.2,4,-0.1,-3,7,29,/,/,/,-1
O=C(OCC(=O)N1CCCc2ccccc21)c1ccc(F)c(S(=O)(=O)N2CCOCC2)c1,-2.2,1,1.6,-14,-11,0,-1,-7,1.7,-3
COC(=O)CCCNC(=O)c1ccc(OS(=O)(=O)c2cc([N+](=O)[O-])ccc2C)cc1,0.1,1,-0.6,-14,-4,2,-12,-5,-4.9,-1
O=C(c1cccc([N+](=O)[O-])c1)N1CCCC(C(=O)N2CCN(c3ccccc3)CC2)C1 (centres undefined),-1.3,-2,-0.3,17,4,0,-4,12,-0.4,/

# Following part.
SMILES,LANA-H2A inh,Beta cell apopt,Bfl-1 A1 inh,ALR inh,T cruzi inh,B2AR ag,rRNA inh HTS,rRNA inh HTS OD600,rRNA inh HTS RFP,Calb FLC
Cn1c(COc2ccc(Cl)cc2)nnc1SCC(=O)NC1CC1,-2.3,-5,2.1,-5,/,-10,9,10,0.9,/
Cc1ccc(N=Cc2ccc(O)cc2O)cc1F,5.8,-1,-0.3,-2,-37,24,/,/,/,-3
COCCCNC(=O)CSC1=Nc2ccccc2C2=NC(Cc3c[nH]c4ccccc34)C(=O)N12 (centres undefined),-3.6,-6,-0.7,5,-4,-6,/,/,/,5
CCOc1cc(-c2nnn(CC(=O)N3CCCCC3)n2)ccc1OC,-5.9,-7,2.5,-5,-8,-3,-5,3,1.6,-5
O=C(COc1ccc(Cl)cc1)NCCCNC(=O)c1cnccn1,1.6,-4,0.2,1,-10,-5,4,14,-1.2,-1
CN1/C(=C\C(=O)c2cccnc2)Sc2ccccc21,-7.5,0,0.4,-3,15,-11,-24,-50,64,27
C[C@H](NC(=O)c1ccccc1Cl)C(=O)Nc1ccccc1F,-1.3,-3,1.6,0,-12,-1,9,6,0.9,1
CC(=O)NC(NC(=S)N1CCCCCC1)C(Cl)(Cl)Cl (centres undefined),-6.8,-2,0.6,-8,-21,-9,/,/,/,-17
C[C@@H]1CN([C@@H](C)CO)C(=O)c2cccc(NC(=O)C3CCOCC3)c2O[C@H]1CN(C)S(=O)(=O)c1ccc(Cl)cc1,7.8,2,0.3,1,/,4,2&2,6&14,-2.0&-5.1,/
CC(c1nccs1)N(C)C(=O)CCc1nnc(CCc2ccccc2)o1 (centres undefined),-2.9,-9,0.0,-1,-2,9,3,-1,1.9,6
CCOc1ccccc1NC(=O)NC1CCN(CC(=O)Nc2ccc3c(c2)OCCO3)CC1,5.9,-2,0.6,-18,14,-10,/,/,/,64
Cc1cc(F)ccc1NS(=O)(=O)c1cccc2nsnc12,2.8,-8,-0.1,6,-1,-4,-10,-10,2.3,11
CCCCCCOc1ccc(N2C(=O)CC(N3CCN(CCN=CC4C(=O)CC(C)(C)CC4=O)CC3)C2=O)cc1 (centres undefined),-3.9,-3,-0.1,5,13,-9,9,13,3.3,31
CN(CCC(=O)Nc1ccc2c(c1)OCO2)Cc1ccccc1,-3.0,1,0.4,-11,10,-8,/,/,/,-3
CN(CC(=O)Nc1ccc(Cl)cc1)C(=O)Cc1c(F)cccc1Cl,-17,0,0.3,-25,-3,-2,0,1,-1.5,-25

# Some entries already given, reduced to Beta cell apopt and B2AR ag:
molecule | Beta cell apopt | B2AR ag
CCCCCCOc1ccc(N2C(=O)CC(N3CCN(CCN=CC4C(=O)CC(C)(C)CC4=O)CC3)C2=O)cc1 (centres undefined) | -3 | -9
CN(CC(=O)Nc1ccc(Cl)cc1)C(=O)Cc1c(F)cccc1Cl | 0 | -2

# Bioassay records: PubChem, several laboratories

# An excerpt (hit frequency here may not be typical).
